# Compound activity from PubChem BioAssay.
# KCNQ2 enhance: potentiators of rat KCNQ2 potassium channel; CHO-K1 KCNQ2, FluxOR thallium flux fluorescence; hits give high values; B-score at 10 µM; 0.54% of 310,000 active;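 active = fluorescence ratio B-score at least 3 SD of library B-scores, with initial fluorescence B-score within 3 SD, cut at about 5.3 in these data; same plate scores as AID 2156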;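 note: B-score of peak minus minimum over baseline fluorescence ratio after K+ and Tl+ stimulus; positive B-score means potentiation of KCNQ2 with more thallium influx and brighter signal; only the inactives scoring about 0 or higher are listed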
# Target sequence (O88943 whole entry, looked up): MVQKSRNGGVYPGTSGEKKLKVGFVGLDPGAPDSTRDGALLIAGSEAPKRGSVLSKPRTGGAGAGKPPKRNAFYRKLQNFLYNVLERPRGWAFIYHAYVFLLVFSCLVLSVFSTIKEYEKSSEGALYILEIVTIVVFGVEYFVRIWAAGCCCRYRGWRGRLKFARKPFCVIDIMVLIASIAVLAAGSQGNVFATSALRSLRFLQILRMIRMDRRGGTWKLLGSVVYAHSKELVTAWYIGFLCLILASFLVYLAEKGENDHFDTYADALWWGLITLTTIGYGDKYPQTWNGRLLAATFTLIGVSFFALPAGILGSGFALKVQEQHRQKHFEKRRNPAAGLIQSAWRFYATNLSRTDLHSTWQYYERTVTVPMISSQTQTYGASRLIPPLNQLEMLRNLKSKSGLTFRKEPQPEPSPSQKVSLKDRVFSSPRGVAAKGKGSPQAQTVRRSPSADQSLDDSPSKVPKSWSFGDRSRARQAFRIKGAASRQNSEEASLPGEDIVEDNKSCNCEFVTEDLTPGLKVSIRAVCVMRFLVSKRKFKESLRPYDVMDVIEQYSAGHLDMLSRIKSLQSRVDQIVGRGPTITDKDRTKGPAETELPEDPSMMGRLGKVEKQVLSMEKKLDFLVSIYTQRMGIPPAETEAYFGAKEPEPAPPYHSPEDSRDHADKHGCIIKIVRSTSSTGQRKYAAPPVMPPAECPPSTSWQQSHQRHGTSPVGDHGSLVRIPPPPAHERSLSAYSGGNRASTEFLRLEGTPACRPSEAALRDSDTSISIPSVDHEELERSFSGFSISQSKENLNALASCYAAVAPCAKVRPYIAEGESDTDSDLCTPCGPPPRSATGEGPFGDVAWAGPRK
# KCNQ2 enhance baseline: also measured in KCNQ2 enhance; calls as there; B-score; compound at 10 µM; measured here: initial fluorescence intensity artifact check;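 brightness before thallium and not channel activity; 0 = typical well and far values either way flag optical interference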
# * marks the source's active call; other numbers are inactive results. These rows are one share of the data; rates above refer to the full screens.
# Below each SMILES: KCNQ2 enhance	KCNQ2 enhance baseline
> CCN(CC)S(=O)(=O)c1ccc(-c2ccc(S(=O)(=O)N(CC)CC)cc2)cc1
  0.02	-0.06
> O=C(NCC(c1ccco1)N1CCN(c2ccccc2F)CC1)C(=O)NC1CCCCC1 (stereo not given)
  0.95	1.9
> Cc1ccc(O)c(Nc2ncnc3ccc([N+](=O)[O-])cc23)c1
  1.1	0.02
> COc1ccc(NC(=O)c2cc3ccccc3o2)cc1
  1.7	-0.03
> NCCSc1c(-c2ccc(F)cc2)[nH]c2ccccc12
  1.7	0.49
> CC1CCCCC1NC(=O)CN(C)S(=O)(=O)c1cccc2nsnc12 (stereo not given)
  1.4	-0.94
> O=C(Cc1ccccc1)Nc1ccc2oc(-c3cccnc3)nc2c1
  0.1	-2.2
> Cc1c(Cl)cccc1NC(=S)N1CCC(N(C)CC2CCCO2)CC1 (stereo not given)
  0.09	1.3
> Brc1ccc2nc3c(n2c1)CCCC3
  0.15	-0.88
> CC(C)(C)c1ccc(-c2nc3n(c(=O)c2C#N)CCS3)cc1
  1.3	1.7

# (more compounds)
# Below each SMILES: KCNQ2 enhance	KCNQ2 enhance baseline
> Cc1cccc(NC(=O)NCC(F)(F)F)n1
  1.8	-0.68
> O=C1c2ccccc2C(=O)N1c1nc2nccc(-c3ccccc3)n2n1
  0.58	-0.03
> CSCCC(NC(=O)c1ccco1)C(=O)N(C)CC(=O)Nc1c(Cl)cccc1Cl (stereo not given)
  0.67	0.1
> Cc1ccc(-c2cn3c(n2)CCCC3)cc1
  0.04	0.66
> O=C(O)CCN1CC2([N+](=O)[O-])C=CC(=O)C([N+](=O)[O-])(C1)C2CC(=O)c1ccccc1 (stereo not given)
  0.05	0
> CN1CCN(c2ccc([N+](=O)[O-])cc2NC(=O)c2ccco2)CC1
  0.13	-1.5
> COc1ccc2cc(C(=O)C3CCCN(C(=O)c4cc5nc(C)cc(C)n5n4)C3)ccc2c1 (stereo not given)
  0.67	-1.1
> COC(=O)c1sc(-c2ccc(C(C)(C)C)cc2)cc1NC(=O)/C=C/C(=O)O
  0.8	-1.4
> CC(=O)N1CCc2cc(S(=O)(=O)NCc3ccc(C)cc3)ccc21
  0.55	0.23
> O=C(NCCOC(=O)c1ccncc1)c1ccccc1
  0.05	5.6

# Continued.
# Below each SMILES: KCNQ2 enhance	KCNQ2 enhance baseline
> CCc1nc(SCC(=O)N2CCOCC2)c2c(=O)n(C)c(=O)n(C)c2n1
  2	0.85
> CC(C(=O)O)C1SC(=O)NC1=O (stereo not given)
  1.5	-0.15
> COCCOC(=O)C1=C(C)Nc2nc(C)nn2C1c1ccccc1 (stereo not given)
  1	-3.6
> Cc1ccccc1OCCOc1ccc([N+](=O)[O-])cc1/C=N/n1cnnc1
  0.15	-0.44
> C=CC1C(N2CCOCC2)C(C)(C)S1(=O)=O (stereo not given)
  0.12	0.47
> Cc1nn(-c2ccccc2)c(C)c1/C=N/NC(=O)c1cc(C2CC2)[nH]n1
  0.18	0.96
> O=C(Cc1ccccc1C(=O)O)Nc1cccc2ccccc12
  0.93	0.46
> COc1ccc(NC(=O)c2ccc(-n3cccn3)c([N+](=O)[O-])c2)cc1
  0.83	-0.62
> CC(=O)NCCCc1nc2ccccc2n1Cc1ccccc1F
  0.03	1.1
> CC(C)(C)OC(=O)N1CCCC1C(=O)O (stereo not given)
  0.71	-0.13

# Next part
# Below each SMILES: KCNQ2 enhance	KCNQ2 enhance baseline
> COc1ccccc1-n1cnc(N)c1C(C)=O
  0.56	-0.45
> CCCc1cc(CNC(=O)C2CCC(=O)N(CCc3cccc(F)c3)C2)on1 (stereo not given)
  1	1.9
> Cc1nc2ccc(NC(=S)NC(C)C)cc2nc1C
  0.07	-0.01
> CCOC(=O)c1cnn(-c2ccc(C(C)C)cc2)c1NC(=O)C1CCC1
  0.57	-0.28
> CCOC(=O)c1c(NC(=O)COC(=O)c2ccccn2)sc(C(=O)N(C)C)c1C
  0.01	-1.4
> COc1ccc(OC)c(S(=O)(=O)Nc2cccc3c(O)cccc23)c1
  0.71	0.01
> O=C1C(=O)N(CCN2CCOCC2)C(c2cccnc2)/C1=C(/O)c1ccccc1 (stereo not given)
  0.09	0.53
> CCCOC(=O)c1ccc(NC(=O)c2ccccc2[N+](=O)[O-])cc1
  0.57	-1.2
> O=C(O)c1ccc(/C=N/NC(=O)c2ccc(CN3c4cccc5cccc(c45)S3(=O)=O)cc2)cc1
  0.03	-1.9
> O=C(Cc1ccccc1)NN1C(=O)C2C3C=CC(C4CC34)C2C1=O (stereo not given)
  0.93	-0.07

# A different layout for 3 compounds above:
compound | KCNQ2 enhance | KCNQ2 enhance baseline
Cc1nc2ccc(NC(=S)NC(C)C)cc2nc1C | 0.07 | -0.01
CCOC(=O)c1cnn(-c2ccc(C(C)C)cc2)c1NC(=O)C1CCC1 | 0.57 | -0.28
CCOC(=O)c1c(NC(=O)COC(=O)c2ccccn2)sc(C(=O)N(C)C)c1C | 0.01 | -1.4

# Next part
# Below each SMILES: KCNQ2 enhance	KCNQ2 enhance baseline
> CCCC(=O)NC(c1ccco1)c1c(O)ccc2ccccc12 (stereo not given)
  0.16	-1.8
> COCCNC(=O)c1ccc2c(c1)CCN2S(C)(=O)=O
  0.01	0.2
> CCOc1ccc(C(=O)NCC(=O)NCC(c2ccco2)N2CCCCC2)cc1OCC (stereo not given)
  0.72	0.71
> COc1cc(C)ccc1OCCOCCOc1cccc2ccc(C)nc12
  1.3	-0.74
> O=C(C1CCN(C2CCN(Cc3ccc4c(c3)CCO4)CC2)CC1)N1CCCC1
  1.9	-1.3
> COc1ccc(C(C)(C)C)cc1NS(=O)(=O)c1cccc2cccnc12
  0.49	-1.1
> COc1cc(C(=O)Nc2ccc(S(=O)(=O)Nc3nccc(C)n3)cc2)cc(OC)c1OC
  1	-1.4
> O=C(c1ccc(CS(=O)c2ccc(F)cc2)o1)N1CCN(C2CCCCC2)CC1 (stereo not given)
  0.66	-0.74
> O=C1CN(C(=O)c2ccc3nc(Cc4cccc(Cl)c4)oc3c2)CCN1
  1.3	-1.3
> Cc1cc(Cl)ccc1Nc1ncccc1C(N)=O
  0.05	-1.6

# Continuation:
# Below each SMILES: KCNQ2 enhance	KCNQ2 enhance baseline
> COc1ccc(C2=Nn3c(C)nnc3SC2)cc1
  1.2	0
> O=C(NC1CCCCC1)c1cccc(S(=O)(=O)N2CCOCC2)c1
  0.28	-0.14
> O=C(O)c1ccccc1OCc1ccccc1Cl
  0.15	-1.6
> O=[N+]([O-])c1ccc2[nH]c(O)c(N=NC3CCS(=O)(=O)C3)c2c1 (stereo not given)
  0.01	-0.75
> O=C(/C=C/c1cccs1)Nc1nccs1
  0.56	0.11
> CSc1ccc(C#N)cc1NC(=O)c1ccc(Cl)cc1Cl
  0.41	-1.8
> CC(=O)Nc1scc(C)c1-c1nc2ccccc2s1
  0.2	0.88
> COC(=O)Nc1snnc1C
  1.4	-2.3
> Cc1ccc(N(C)C(=O)CCS(=O)(=O)c2ccc3c(c2)oc(=O)n3C)cc1
  0.54	2.4
> COc1ccc(-n2c(CN3CCC(C(N)=O)CC3)nc3ccc([N+](=O)[O-])cc3c2=O)c(OC)c1
  0.28	-1.9

# Entries of single compounds, looked up by structure. Values in the order: KCNQ2 enhance, KCNQ2 enhance baseline
# CC(=O)Nc1scc(C)c1-c1nc2ccccc2s1 reads 0.2, 0.88
# O=C(/C=C/c1cccs1)Nc1nccs1 reads 0.56, 0.11
# O=C(NC1CCCCC1)c1cccc(S(=O)(=O)N2CCOCC2)c1 reads 0.28, -0.14
# O=[N+]([O-])c1ccc2[nH]c(O)c(N=NC3CCS(=O)(=O)C3)c2c1 (stereo not given) reads 0.01, -0.75
# CSc1ccc(C#N)cc1NC(=O)c1ccc(Cl)cc1Cl reads 0.41, -1.8

# More results.
# Below each SMILES: KCNQ2 enhance	KCNQ2 enhance baseline
> CSc1ncccc1C(=O)Nc1ccc(S(=O)(=O)NC2=NCCCCC2)cc1
  0.2	-0.84
> Cc1ccc(N2CC(C(=O)Nc3ccc(N(C)C)cc3)CC2=O)cc1C (stereo not given)
  0.03	-0.01
> Cn1cc(CN2CCCC(CO)(Cc3cccc(Cl)c3)C2)cn1 (stereo not given)
  2.3	-3
> Cc1cc(S(=O)(=O)N2CCOCC2)ccc1OCC(=O)Nc1ccc(F)cc1
  0.85	1.6
> O=C(Nc1sc2c(c1C(=O)O)CCCC2)c1cccc(Cl)c1
  5.4*	-0.99*
> COc1ccc([C@H]2/C=C\CN(S(=O)(=O)/C=C/c3ccccc3)[C@@H](C)C(=O)N2Cc2ccc(F)cc2)cc1
  0.26	0.92
> CCN(c1ccccc1)S(=O)(=O)c1ccc(Cl)c(C(=O)OCC(=O)NC(=O)C(C)C)c1
  0.06	0.3
> O=C(c1cccc([N+](=O)[O-])c1)c1ccc2[nH]c(=O)[nH]c2c1
  1.6	0.17
> COc1cc(NC(=O)CCc2nc(-c3cccs3)no2)cc(OC)c1OC
  0.71	1.5
> Cc1c(C)n(CC(O)CN2CCCCCC2)c2ccccc12 (stereo not given)
  1.4	0.08

# Additional records follow.
# Below each SMILES: KCNQ2 enhance	KCNQ2 enhance baseline
> O=C(NN1C(=O)C2C3c4ccccc4C(c4ccccc43)C2C1=O)C1CC1 (stereo not given)
  0.25	-0.68
> Cc1cc(C)c(C(=O)Nc2ccc(S(=O)(=O)Nc3ccccn3)cc2)c(C)c1
  0.76	-0.02
> Nc1ccc(NC(=O)c2cccs2)cc1
  1.5	-0.58
> Cc1cc(-c2ccc(Cl)cc2)c(C#N)c(N)n1
  0.52	-0.19
> C=CCn1c(SCC(=O)c2c(N)n(C)c(=O)n(C)c2=O)nc2sc(CC)cc2c1=O
  0.12	-1.5
> CC1CCc2c(sc3nc(CN4CCOCC4)nc(Sc4ccccc4)c23)C1 (stereo not given)
  0.23	0.41
> Cc1ccc2sc(N(CCN(C)C)C(=O)/C=C/c3cccs3)nc2c1C
  1.8	2
> Cc1cc(NC(=O)c2ccccc2C)ccc1NC(=O)c1ccccc1Cl
  0.03	1.5
> Cc1cc(C)nc(SCC(=O)Nc2nonc2N)n1
  0.34	-1.1
> CCCN1C(=O)SC(CC(=O)Nc2cccc3ccccc23)C1=O (stereo not given)
  2.4	-1.9

# (next part)
# Below each SMILES: KCNQ2 enhance	KCNQ2 enhance baseline
> Cc1nn(C(C)C(=O)NCCN2CCCCCC2)c(=O)c2nn(-c3ccccc3)c(C)c12 (stereo not given)
  1.4	-0.2
> CCn1c(SCC(=O)N(C)CC(=O)Nc2ccc(F)c(F)c2F)nnc1-c1ccco1
  0.3	0.93
> CCCCc1cc(=O)oc2cc(OC3CCCCC3=O)ccc12 (stereo not given)
  0.52	1.9
> Cc1ccc2[nH]c(=O)c(-c3nc4ccccn4c3NCc3ccco3)cc2c1
  0.68	-0.1
> C=CCN1C(=O)C(Cc2ccccc2)SC1=Nc1ccc(C(=O)O)cc1 (stereo not given)
  1.4	-0.29
> COC(=O)C1=C(C)N(C)C(C)=C(C(=O)OC)C1c1ccccn1
  1.2	-1.4
> Cc1ccc(SCc2[nH]nc3c2C(c2ccco2)C(C#N)=C(N)O3)cc1 (stereo not given)
  0.07	-0.16
> Cc1ncc2c(c1OC(=O)c1ccc([N+](=O)[O-])cc1)COC(C)(C)OC2
  0.43	-0.7
> CCOC(=O)c1c(N)sc2c(OC)c(Br)ccc12
  0.25	-0.03
> CC(C)=CCN1CCN(C/C(Cl)=C/c2ccccc2)CC1CCO (stereo not given)
  0.31	-1.9

# (continued)
# Below each SMILES: KCNQ2 enhance	KCNQ2 enhance baseline
> O=C1NC(=O)/C(=C\c2ccccc2OCc2cccc([N+](=O)[O-])c2)N1
  0.47	-1.3
> O=C(O)c1cccc2c1C(=O)N(CC1CCCO1)C2 (stereo not given)
  0.21	0.04
> CCOc1ccc(N2CC(C(=O)NNC(=O)c3ccc(Br)cc3)CC2=O)cc1 (stereo not given)
  0.08	-0.06
> COc1cccc(/C=N/Nc2ncc(C(F)(F)F)cc2Cl)c1O
  1.9	-0.7
> CCC(CC)c1nnc(NC(=O)C2CC(=O)N(CCc3ccc(F)cc3)C2)s1 (stereo not given)
  0.09	0
> CCOC(=O)c1ccc(N2C(=O)c3n[nH]c(-c4ccco4)c3C2c2ccc([N+](=O)[O-])cc2)cc1 (stereo not given)
  0.09	-0.37
> NS(=O)(=O)c1ccc(CNC(=O)c2ccncc2)cc1
  1.4	-0.92
> COc1ccc(C(CNC(=O)c2ccc(NS(=O)(=O)c3ccc(F)cc3)cc2)N2CCOCC2)cc1 (stereo not given)
  0.02	0.78
> Cc1ccc(-n2c(O)c(C=NCc3ccccn3)c3ccccc3c2=O)cc1
  0.47	-0.65
> O=C(COc1ccc(S(=O)(=O)N2CCCC2)cc1Cl)NCc1cccnc1
  0.91	-0.26

# More records follow:
# Below each SMILES: KCNQ2 enhance	KCNQ2 enhance baseline
> CCOC(=O)C(NS(=O)(=O)c1ccccc1)(C(F)(F)F)P(=O)(OCC(C)C)OCC(C)C (stereo not given)
  0.08	-0.56
> COCCCN1C(=O)C(=O)/C(=C(/O)c2ccc(S(=O)(=O)N3CCOCC3)cc2)C1c1ccc(Cl)cc1 (stereo not given)
  0.89	-0.9
> COc1ccc(S(=O)(=O)N2CCC(C(=O)NCCc3c[nH]c4ccccc34)CC2)cc1
  0.78	-0.6
> CCOC(=O)c1sc(N2C(=O)C(O)=C(C(=O)c3ccc(C)o3)C2c2ccc(OC)c(OC)c2)nc1C (stereo not given)
  0.64	-0.04
> CCc1cc(C(=O)N2CCCC(N3CCN(c4cccc(C(F)(F)F)c4)CC3)C2)n(C)n1 (stereo not given)
  1.3	0.03
> CC1(C)CC(NC(=O)CC(c2ccccc2)c2ccccc2)CC(C)(C)N1
  2.3	0.08
> C=CCN(c1ccc(C(=O)Nc2ccc(C)cc2)cc1)S(C)(=O)=O
  0.02	-0.53
> Cc1nnc(C)n1/N=C/c1cccs1
  1.6	-1
> O=C(NNC(=O)c1cc2c(s1)CCCC2)c1ccccc1
  0.01	0.23
> Cc1ccccc1OC(=O)c1cccnc1
  1	-1.6
> COc1cc2ccc(=O)oc2c(O[C@@H]2O[C@H](CO)[C@@H](O)[C@H](O)[C@H]2O)c1O
  0.42	-0.32
